# Screens: PubChem BioAssay, ICCB-Longwood Screening Facility, Harvard Medical School
# GIV-Gai inh: blocks GIV peptide binding to rat Galpha-i3. P08753. Galpha-i3/FITC-GIV peptide fluorescence polarization, 90 min; active compounds read low; scaled: aluminum fluoride 0%, vehicle 100%. percent of control (FP), % (no concentration beside the values). 0.42% of 210,000 active. AID 1224905;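 active means replicate mean at 85% of control or lower, very high polarization wells dropped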;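 further: wells of about 15 µL received 100 nL stock; the first replicate is given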
# Target sequence (P08753 whole entry, looked up): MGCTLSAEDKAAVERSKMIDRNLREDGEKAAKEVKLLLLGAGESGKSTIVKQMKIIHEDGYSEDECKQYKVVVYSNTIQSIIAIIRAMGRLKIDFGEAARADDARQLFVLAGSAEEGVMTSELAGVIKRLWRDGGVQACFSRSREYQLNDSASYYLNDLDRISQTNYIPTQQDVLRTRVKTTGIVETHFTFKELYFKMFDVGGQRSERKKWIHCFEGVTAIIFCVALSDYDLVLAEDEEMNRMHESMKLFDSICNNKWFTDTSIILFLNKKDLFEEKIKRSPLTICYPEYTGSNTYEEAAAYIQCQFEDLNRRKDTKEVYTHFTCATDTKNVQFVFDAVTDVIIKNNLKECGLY
# Sa growth inh: inhibitors of Staphylococcus aureus growth at 42 °C; relative growth, % (concentration not given with the values); AID 720641; 0.53% of 170,000 active; S. aureus RN4220 growth, OD600, 20 h; active compounds read low;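 active means growth at 42 °C up to 50% and 20 or more points under that at 30 °C, or under 10% at both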;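 further: 300 nL library stock went into each well; scaled to the means of positive and negative controls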
# HCMV UL50-53 inh: inhibitors of HCMV UL50-UL53 nuclear egress complex interaction | HTRF UL50-UL53 interaction, normalized percent inhibition | inhibition, % (test concentration not listed) | 0.15% of 190,000 active;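 active means both replicates at 50% or more, plus weaker picks with an unusually low signal ratio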;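 further: stock transfer was 100 nL into about 20 µL; 0% = negative control wells and 100% = wells with untagged competitor protein; inactives centre near -12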
# Sa growth inh second temp: recorded beside Sa growth inh, whose call it bears; relative growth, %; measured here: growth at 30 °C;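 optical density after 20 h as mean of two plates; 100% = untreated growth and lower means inhibition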
# The depositor's hits bear a star; · = not tested or not shown; & = joins results of further samples. Rows are unselected. Share with any hit: about 0.85%.
canonical_smiles	GIV-Gai inh	Sa growth inh second temp	Sa growth inh	HCMV UL50-53 inh
O=C(NC1CC(=O)N(c2cccc(F)c2)C1)C(c1ccccc1)c1ccccc1 (stereo not drawn)	96	90	112	·
COc1ccc(CNS(=O)(=O)c2ccc(-c3cnc(C4CC4)o3)cc2)cc1	101	94	111	·
CCC(Sc1ccc2nnc(-c3ccccc3)n2n1)C(=O)OC (stereo not drawn)	98	93	102	·
CCCOc1ccc2oc(=O)c3c(c2c1)CCCN3C(=O)CN(CC)c1cccc(C)c1	104	80	83	-7
N#CC1(c2ccccc2Cl)C(=O)Nc2ccccc21 (stereo not drawn)	·	95	96	5
CC(=O)Nc1cccc(C(=O)NCc2ccc3c(c2)CCN3C(=O)c2ccc(F)cc2)c1	109	81	118	·
CCc1ccccc1NC(=O)c1cc(-c2cccs2)on1	98	84	105	-9
CCOC(=O)N1CCc2c(sc3c2c(=O)n(Cc2ccccc2)c(=O)n3Cc2cccc(C)c2)C1	102	88	99	-34
O=C(O)CCC(=O)Nc1nc2n(n1)C(c1ccccc1)CC(=O)N2 (stereo not drawn)	98	87	90	·
COc1ccccc1CNC(=O)c1cccc(NC(=O)c2nnc(COc3ccc(Cl)cc3)s2)c1	104	·	·	-10
CC(C)n1c(C(F)(F)F)nc2cc(C(=O)N3CCC(O)CC3)ccc21	99	87	117	-7
CN(C)CCCn1c(N)nc2ccccc21	96	81	84	-22
CCCCN1C(=O)c2[nH]nc(-c3ccccc3O)c2C1c1ccc(C(C)(C)C)cc1 (stereo not drawn)	106	92	98	5
CCOC(=O)c1ccccc1NC(=O)c1sc(NC(=O)Cc2ccc(OC)cc2)c(C(=O)OCC)c1C	102	·	·	-11
C=C(C)c1cccc(C(C)(C)NC(=O)Nc2ccccc2OC)c1	·	81	99	-9
O=C(O)CN1C(=O)/C(=C2/OC(=O)c3ccccc32)SC1=S	106	80	91	-51
O=C1C2C(c3ccccc3)C=CC(c3ccccc3)C2C(=O)N1c1cccc(Br)c1 (stereo not drawn)	101	92	103	·
CC(NC(=O)CSc1nnc(-c2ccc(F)cc2)o1)c1ccc(Br)cc1 (stereo not drawn)	·	96	91	-12
CC(C)NC(=O)CSc1nc2ccccc2[nH]1	106	101	106	-20
Cc1ccc(S(=O)(=O)n2nc(-c3ccc(C)c(C)c3)nc2N)cc1	98	·	·	-5
CNC(=O)c1ccc2c(c1)NC(=O)c1ccccc1S2	102	84	103	·
CN(CC(=O)N1CCc2ccccc21)c1ccccc1	·	98	111	-1
CCOc1ccccc1NC(=O)c1ccc(N2CCCN(Cc3ccccc3C)C2=O)cc1	100	·	·	-10
COc1ccc(NC(=O)Cn2ncc3ccccc32)cc1OC	100	93	90	-7
CCCC(CCC)C(=O)Nc1cc(C)c2c(=O)oc3ccccc3c2n1	103	81	83	-10
O=S(=O)(c1cc(Cl)sc1Cl)N1CCN(CCc2ccccc2)CC1	100	88	89	-22
C=CCN1C(=O)C2C(C(=O)NC3CCCCC3C)C3(C)C=CC2(O3)C1C(=O)NC(C)(C)C (stereo not drawn)	100	77	98	2
COc1ccc(Sc2nc(C)c(-c3csc(C)n3)cc2C#N)cc1	102	93	102	-8
CC(=O)SC1CC2=CC(=O)CC[C@]2(C)C2CC[C@@]3(C)C(CC[C@@]34CCC(=O)O4)C12 (stereo partly drawn)	103	·	·	-17
S=C(c1cn(CCOc2ccccc2)c2ccccc12)N1CCCC1	112	40	142	·
C=CCSc1nnc(NC(=O)c2ccc(S(=O)(=O)N3CCCCC3)cc2)s1	105	92	102	-25
CCOC(=O)CSc1ccc(C(=O)O)c2c(C(=O)O)cccc12	102	92	110	-12
CCOC(=O)c1cccc(N2C(=O)C3C4C=CC(CC4)C3C2=O)c1 (stereo not drawn)	101	·	·	-6
Cc1csc2nc(COC(=O)c3ccc(NC(=O)C(C)C)cc3)cc(=O)n12	101	16	58	·
CCCOc1ccc(-c2cc(C(=O)NCC3CCCO3)c3ccccc3n2)cc1 (stereo not drawn)	106	·	·	-40
O=C(Nc1nnc(C2=COCCO2)o1)c1ccc(Cl)cc1	106	-0.5*	3.7*	-14
CNC1CCCc2ccccc21 (stereo not drawn)	·	88	99	-17
O=C(Oc1ccccc1)c1ccc(=O)oc1	105	86	113	·
COc1ccc(-c2nn3c(NCc4ccccn4)cc(C)nc3c2C)cc1OC	103	·	·	-20
CC(C)N=c1scc(-c2ccco2)n1/N=C/c1ccccc1O	·	52	88	-8
O=C(Nc1ccc(-c2cn3cccnc3n2)cc1)c1ccco1	107	80	96	-40
CCOc1ccc(CN2C(=O)c3ccccc3C2C(=O)NCCc2ccc(OC)c(OC)c2)cc1 (stereo not drawn)	101	84	100	·
CN1CCN(c2nnc(-n3cccc3CNCCCN3CCOCC3)s2)CC1	112	104	90	-15
O=C(Nc1ccccc1Cl)N1CCc2c([nH]c3ccccc23)C1c1cccnc1 (stereo not drawn)	106	·	·	9
CCOC(=O)c1ccc(NC(=O)CCS(=O)(=O)c2ccc3c(c2)oc(=O)n3C)cc1	103	88	94	·
CC(C)(C)c1ccc(C2Sc3ccccc3NC3=C2C(=O)c2ccccc23)cc1 (stereo not drawn)	109	87	95	-38
Sc1ccc2oc3ccc(S)cc3c2c1	105	82	100	-13
CC(C)NC(=O)c1ccc2c(c1)NC(=O)CO2	100	·	·	-14
COc1ccccc1N=Cc1c(O)n(-c2ccccc2OC)c(=O)[nH]c1=O	·	91	110	-2
COc1ccc(C(=O)Nc2ccc(-c3nnc4n3CCCCC4)cc2)cc1OC	103	92	89	·
O=S(=O)(CS(=O)(=O)c1cccc(Cl)c1)c1cccc(Cl)c1	103	90	101	-8
CC(NC(=O)CSc1n[nH]c(-c2ccccc2Cl)n1)c1nc2ccccc2[nH]1 (stereo not drawn)	104	84	91	·
CCOc1ccc(NC(=O)c2ccnc(N3CCC(C(=O)N4CCOCC4)CC3)c2)cc1	105&101	98	118	-26
N#CCc1nnc2n1-c1ccccc1SC2	·	85	99	-18
CN(C)C(=O)NCc1ccc(Cl)cc1	108	107	96	4
CC(C)c1ccc2c(c1)C(=O)NC(C)(C)C2	106	88	85	-2
OC1(C(F)(F)F)CC(c2ccc3ccccc3c2)=NO1 (stereo not drawn)	99	71	113	-12
CCS(=O)(=O)c1nc(S(=O)(=O)c2ccc(C)cc2)c(NC(C)c2ccccc2)s1 (stereo not drawn)	110	96	100	6
O=C(NCCc1ccc(Cl)cc1)c1cnc(N2CCCC2)nc1	100	·	·	6
CCn1c2ccccc2c2nnc(SCC(=O)O)nc21	109	85	98	-100

# Just Sa growth inh second temp, GIV-Gai inh and HCMV UL50-53 inh, for some of the entries so far:
smiles,Sa growth inh second temp,GIV-Gai inh,HCMV UL50-53 inh
COc1ccc(-c2nn3c(NCc4ccccn4)cc(C)nc3c2C)cc1OC,·,103,-20
CC(C)NC(=O)c1ccc2c(c1)NC(=O)CO2,·,100,-14
O=C(Nc1ccccc1Cl)N1CCc2c([nH]c3ccccc23)C1c1cccnc1 (stereo not drawn),·,106,9

# Structural class, the compounds so far with a Cl atom (nine)
canonical_smiles	GIV-Gai inh	Sa growth inh second temp	Sa growth inh	HCMV UL50-53 inh
N#CC1(c2ccccc2Cl)C(=O)Nc2ccccc21 (stereo not drawn)	·	95	96	5
COc1ccccc1CNC(=O)c1cccc(NC(=O)c2nnc(COc3ccc(Cl)cc3)s2)c1	104	·	·	-10
O=S(=O)(c1cc(Cl)sc1Cl)N1CCN(CCc2ccccc2)CC1	100	88	89	-22
O=C(Nc1nnc(C2=COCCO2)o1)c1ccc(Cl)cc1	106	-0.5*	3.7*	-14
O=C(Nc1ccccc1Cl)N1CCc2c([nH]c3ccccc23)C1c1cccnc1 (stereo not drawn)	106	·	·	9
O=S(=O)(CS(=O)(=O)c1cccc(Cl)c1)c1cccc(Cl)c1	103	90	101	-8
CC(NC(=O)CSc1n[nH]c(-c2ccccc2Cl)n1)c1nc2ccccc2[nH]1 (stereo not drawn)	104	84	91	·
CN(C)C(=O)NCc1ccc(Cl)cc1	108	107	96	4
O=C(NCCc1ccc(Cl)cc1)c1cnc(N2CCCC2)nc1	100	·	·	6

# Next part:
canonical_smiles	GIV-Gai inh	Sa growth inh second temp	Sa growth inh	HCMV UL50-53 inh
CCC(Sc1nnnn1-c1ccccc1)C(=O)Nc1sc2c(c1C#N)CCCC2 (stereo not drawn)	102	81	97	·
Cc1cc(C)n(Cc2c(C(=O)O)noc2C)n1	100	69	82	-29
CC(CN1CCN(Cc2ccccc2)CC1)N(C(=O)c1ccc(C(C)(C)C)cc1)c1ccccn1 (stereo not drawn)	105	95	113	34
CCc1ccc(C2=NN(C(=O)CCC(=O)O)C(c3ccco3)C2)cc1 (stereo not drawn)	·	94	106	-39
COc1ccc(-c2cc3nc(C4CCN(C(=O)OC(C)(C)C)CC4)c(C(=O)O)cn3n2)cc1	105	86	112	-18
COc1cccc(N2CC(=O)N(N)CC2=O)c1	103	87	91	-15
Cc1ccc(Oc2ncnc3sccc23)cc1	102	95	95	·
COc1cc(C2CC(=O)c3c([nH]c(C(=O)OCc4ccc(C)cc4)c3C)C2)cc(OC)c1OC (stereo not drawn)	105	89	91	-5
COC(=O)c1c(-c2ccccc2)csc1-n1c(C)ccc1C	·	90	105	-13
COC(=O)c1ccc2c(=O)n(CCO)c(SCCOc3ccccc3C)nc2c1	·	93	107	-6
COc1cccc(NC(=O)CC2Nc3cc(C)c(C)cc3NC2=O)c1 (stereo not drawn)	107	75	112	-29
O=C(COC(=O)C1(c2ccc(F)cc2)CCCC1)NC1CCCC1	·	86	109	-33
Cc1cccn2c(=O)c(C(=O)N3CCN(c4ccccc4)CC3)cnc12	102	91	104	·
COc1ccc(-c2noc(CSCC(=O)N3CCN(c4ccccc4OC)CC3)n2)cc1OC	99	·	·	-18
O=C(NCc1ccc(F)cc1)C1CC(=O)N(Cc2cnn(-c3ccccc3)c2-n2cccc2)C1 (stereo not drawn)	100&108	75	91	-14&-28
Cc1ccc(Cl)cc1N1CCN(C(=O)C2CCN(S(=O)(=O)c3c(C)noc3/C=C/c3ccccc3F)CC2)CC1	104	96	97	·
Cc1ccc(-c2cc(=O)n3[nH]c(C)c(-c4ccccc4)c3n2)cc1	94	·	·	-7
Nc1nc(CNS(=O)(=O)c2ccc(Cl)cc2)nn1S(=O)(=O)c1ccc(Cl)cc1	105	·	·	-12
CC1(C)C2CCC1(C)C(NC(=O)c1cccc(C(F)(F)F)c1)C2 (stereo not drawn)	106	92	94	-28
O=C(Cn1cnnn1)Nc1ccc(Cl)c(Cl)c1	·	90	95	10
COc1ccc(C(=O)c2oc3ccccc3c2NC(=O)COc2cccc(C)c2C)cc1	107	94	115	-3
O=C(COC(=O)c1ccco1)NCc1ccccc1	·	91	103	9
OC1CCSc2ccc(Cl)cc21 (stereo not drawn)	108	100	107	7
CN(c1ccc(C(=O)CSc2nnc(-c3ccco3)n2C2CCCCC2)cc1)S(C)(=O)=O	·	99	103	12
COc1ccccc1N1C(N)=NC(N)=NC12CCCCC2	99	76	108	·
Cc1ccc(N(CC(=O)N2CCN(c3ccccc3)CC2)S(=O)(=O)c2c(C)noc2C)cc1	106	91	109	-23
O=C(NCC1CC2CCC1C2)c1n[nH]c(=O)c2ccccc12 (stereo not drawn)	96	89	56	2
Cc1ccccc1CN1CCN(C2c3ccccc3-c3ccccc32)CC1	101	92	92	·
CCc1ccc(-c2cn3c(n2)sc2cc(C(=O)O)ccc23)cc1	99	43	65	-3
COCCNC(=O)CCn1c(=O)c2cc(OC)c(OC)cc2n(CC(=O)Nc2ccc(Cl)cc2F)c1=O	103	93	97	-2
COc1ccc(C2=Nc3ccc(F)cc3NC(c3cccc(C(F)(F)F)c3)=N2)cc1	102	86	109	-36
O=C(O)/C=C/C(=O)Nc1nnc(-c2ccccc2F)s1	88	98	86	22
COc1cc(NC(=O)Cn2c(C)cc(C)c(S(=O)(=O)c3ccc(OC)c(OC)c3)c2=O)cc(OC)c1	98	·	·	-22
CC(=O)n1c(=O)n(C(C)=O)c2cc(Br)ccc21	106	83	95	-22
O=C(Oc1ccc2oc3ccccc3c2c1)c1ccc(=O)[nH]c1	·	100	93	2
COC(=O)C1=C(C)NC2=C(C(=O)CC(c3ccc(OC)cc3)C2)C1c1ccc(OC)c(Br)c1 (stereo not drawn)	108	·	·	13
Cc1nn(CC(=O)N2CCc3ccccc32)c(C)c1S(=O)(=O)N(C)C	·	94	72	-31
Cc1oc(-c2cccc(Cl)c2)nc1CSc1nncn2c1cc1occc12	111	91	85	·
